Screening results as filed in PubChem.
NOMO-1 viab: STK33 inhibitor candidate reducing NOMO-1 cell viability; NOMO-1 AML viability, CellTiter-Glo luminescence, 72 h; inhibition, % (no concentration beside the values); 7.5% of 37,000 active;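 active means most replicates above 80%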;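 further: wells of about 30 µL received 25 nL stock; 0% = median of vehicle wells and 100% = reference inhibitor level; the first replicate is given; inactives centre near 10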
An asterisk follows results filed as active. Not all compounds are listed; rates above refer to the full screens.

no.	Compound	NOMO-1 viab
1	COc1ccc(NC(=O)Nc2cccc3c2O[C@@H](CN(C)Cc2ccc(Oc4ccccc4)cc2)[C@@H](C)CN([C@H](C)CO)C3=O)cc1	117*
2	COC(=O)CNC(=O)c1cc2cc(Cl)ccc2oc1=O	22
3	COc1cc(-c2nc3sc4c(c3c(=O)[nH]2)CCCC4)cc(Br)c1OCC(=O)O	10
4	COc1ccc(CN2CCN(Cc3cccc([N+](=O)[O-])c3)CC2)c(OC)c1OC	28
5	C[C@@H]1CN([C@H](C)CO)C(=O)c2cc(NC(=O)CCCN(C)C)ccc2O[C@H]1CN(C)S(=O)(=O)c1ccccc1	21
6	COc1ccc(CN2C(=O)C(O)(CC(=O)c3ccc4c(c3)CCCC4)c3ccccc32)cc1OC (stereo unspecified)	47
7	C[C@@H]1CN([C@H](C)CO)C(=O)c2cc(NS(C)(=O)=O)ccc2O[C@H]1CN(C)Cc1ccc(Cl)c(Cl)c1	3
8	CC(C)c1ccc(NC(=O)c2coc(=O)c3ccccc23)cc1	-13
9	C[C@H]1CN([C@@H](C)CO)C(=O)c2cc(NS(=O)(=O)c3ccccc3)ccc2O[C@@H]1CN(C)S(=O)(=O)c1ccc(F)cc1	16
10	C[C@@H]1CN([C@@H](C)CO)C(=O)Cc2cc(NS(=O)(=O)c3ccc(Cl)cc3)ccc2O[C@@H]1CN(C)S(=O)(=O)c1ccccc1	34
11	COc1ccc(NC(=O)N(C)C[C@@H]2Oc3ccc(NC(=O)Nc4ccc5c(c4)OCO5)cc3CC(=O)N([C@H](C)CO)C[C@@H]2C)cc1	27
12	O=c1[nH]c(SCc2n[nH]c(=S)n2-c2ccccc2)nc2sc3c(c12)CCC3	-9
13	CC(C)NC(=O)N(C)C[C@H]1Oc2ccc(NC(=O)CCC(F)(F)F)cc2CC(=O)N([C@H](C)CO)C[C@H]1C	9
14	C[C@H](CO)N1C[C@H](C)[C@@H](CN(C)S(=O)(=O)c2ccccc2)Oc2c(NC(=O)Nc3ccc4c(c3)OCO4)cccc2C1=O	9
15	C[C@H]1CN([C@@H](C)CO)C(=O)c2cc(NC(=O)CCCN(C)C)ccc2O[C@H]1CN(C)Cc1ccc2c(c1)OCO2	-8
16	C[C@@H]1CN([C@@H](C)CO)C(=O)c2cccc(NC(=O)Nc3ccc(F)cc3)c2O[C@H]1CN(C)S(=O)(=O)c1cn(C)cn1	14
17	Clc1cc2c(c(C[n+]3ccccc3)c1)OCOC2	-5
18	C[C@H]1CCC[C@@H](O)CC(=O)c2c(O)cc(O)cc2CC(=O)O1	18
19	Cc1cc(C(=O)Nc2cccc3c2O[C@H](CN(C)Cc2ccncc2)[C@H](C)CN([C@@H](C)CO)C3=O)n(C)n1	18
20	COc1ccc(S(=O)(=O)Nc2ccc3c(c2)CC(=O)N([C@@H](C)CO)C[C@@H](C)[C@@H](CN(C)S(=O)(=O)c2ccc(F)cc2)O3)cc1	54
21	Cc1cc(Br)ccc1NC(=O)CSc1nnc(N)s1	-14
22	COc1ccc(NC(=O)CSc2ncnc3scc(-c4ccccc4)c23)c([N+](=O)[O-])c1	7
23	C[C@@H]1CN([C@H](C)CO)C(=O)c2cc(NC(=O)CCC(F)(F)F)ccc2O[C@@H]1CN(C)S(=O)(=O)c1ccc(Cl)cc1	-7
24	C[C@H]1CN([C@@H](C)CO)C(=O)c2cccc(NC(=O)C3CCOCC3)c2O[C@@H]1CN(C)CC1CCCCC1	17
25	COc1ccc(N=C(CCCN2C(=O)c3ccccc3C2=O)C2=C(O)CC(C)(C)CC2=O)cc1	12
26	C[C@H]1CN([C@@H](C)CO)C(=O)Cc2cc(NC(=O)Cc3ccccc3)ccc2O[C@@H]1CN(C)C	-6
27	Cc1noc(C)c1NC(=O)N(C)C[C@@H]1Oc2c(NC(=O)c3nc4ccccc4s3)cccc2C(=O)N([C@@H](C)CO)C[C@H]1C	26
28	c1ccc(-c2nnc(SCc3nc4ccccc4s3)n2-c2ccccc2)cc1	38
29	COc1ccc(S(=O)(=O)N(C)C[C@H]2Oc3ccc(NC(=O)Nc4ccccc4)cc3C(=O)N([C@H](C)CO)C[C@@H]2C)cc1	-5
30	CCc1ccc(NC(=O)CSc2nc3ccccc3[nH]2)cc1	21
31	c1ccc2c(c1)OCC(c1nnc3sc(-c4cnccn4)nn13)O2 (stereo unspecified)	15
32	C[C@H](CO)N1C[C@H](C)[C@H](CN(C)C(=O)NC2CCCCC2)Oc2ccc(NC(=O)C3CCCCC3)cc2CC1=O	24
33	C[C@@H]1CN([C@@H](C)CO)C(=O)c2cccc(NC(=O)CCCCCC(=O)Nc3ccccc3N)c2O[C@H]1CN(C)C(=O)Nc1ccc(F)cc1	1
34	O=C(NN1C(=O)c2ccccc2C1=O)c1ccccc1	-5
35	Clc1cccc(Cl)c1Cn1cnc2c(Oc3cccnc3)ncnc21	9
36	C[C@H]1CN([C@@H](C)CO)C(=O)c2cc(NC(=O)Cc3cn(C)c4ccccc34)ccc2O[C@H]1CN(C)Cc1ccncc1	73
37	O=C(CSc1nc2ccccc2s1)c1cc2ccccc2oc1=O	0
38	CC(=O)c1c(C)nn(CC(O)COc2ccc(C(=O)c3ccc(Cl)cc3)cc2)c1C (stereo unspecified)	69
39	C[C@H]1CN([C@@H](C)CO)C(=O)Cc2cc(NS(=O)(=O)c3ccc(Cl)cc3)ccc2O[C@@H]1CN(C)S(=O)(=O)c1ccccc1	48
40	C[C@@H]1CN([C@@H](C)CO)C(=O)c2cc(NC(=O)CCN3CCOCC3)ccc2O[C@@H]1CN(C)C(=O)Nc1cccc2ccccc12	13
41	C[C@@H]1CCCCO[C@H](CN(C)C(=O)C2CCCCC2)[C@@H](C)CN([C@H](C)CO)C(=O)c2cc(NS(=O)(=O)c3cccs3)ccc2O1	39
42	C[C@@H]1CN([C@H](C)CO)C(=O)c2cccc(NC(=O)Nc3cccc4ccccc34)c2O[C@H]1CN(C)S(C)(=O)=O	9
43	C[C@H](CO)N1C[C@H](C)[C@H](CN(C)S(=O)(=O)c2ccccc2)Oc2c(NC(=O)Nc3ccccc3)cccc2C1=O	58
44	Cc1noc(C)c1NC(=O)N(C)C[C@@H]1Oc2ccc(NC(=O)C3CC3)cc2C(=O)N([C@@H](C)CO)C[C@H]1C	3
45	COc1cc(NC(=O)COc2ccc3ccccc3c2Br)c(OC)cc1Cl	126*
46	COc1cc(OC)c(C2=NOC(C(=O)NCc3cccnc3)C2)cc1Cl (stereo unspecified)	40
47	CC(C)NC(=O)N(C)C[C@H]1OCCCC[C@@H](C)Oc2ccc(N(C)C)cc2C(=O)N([C@H](C)CO)C[C@@H]1C	-22
48	C[C@@H]1CN([C@H](C)CO)C(=O)c2cccc(NC(=O)NC3CCCCC3)c2O[C@@H]1CN(C)C(=O)Nc1ccccc1	17
49	C[C@H]1CN([C@@H](C)CO)C(=O)c2cccc(NS(=O)(=O)c3cccs3)c2O[C@H]1CN(C)S(=O)(=O)c1ccccc1	35
50	CC(C)NC(=O)N(C)C[C@H]1Oc2ccc(NC(=O)Cc3cn(C)c4ccccc34)cc2CC(=O)N([C@@H](C)CO)C[C@@H]1C	15
51	C[C@H](CO)N1C[C@H](C)[C@@H](CN(C)CC2CCCCC2)Oc2c(NC(=O)Nc3ccc4c(c3)OCO4)cccc2C1=O	79
52	C[C@H]1CN([C@@H](C)CO)C(=O)c2cc(NC(=O)CCN3CCOCC3)ccc2O[C@H]1CN(C)S(=O)(=O)c1ccc(F)cc1	9
53	C=CCNC(=O)C1(O)c2ccccc2NC(=O)N1c1ccccc1 (stereo unspecified)	-26
54	C[C@H]1CN([C@@H](C)CO)C(=O)c2cccc(N(C)C)c2O[C@H]1CN(C)S(=O)(=O)c1ccc(F)cc1	3
55	C[C@H]1CN([C@@H](C)CO)C(=O)c2cccc(NS(C)(=O)=O)c2O[C@@H]1CN(C)Cc1ccc(C(F)(F)F)cc1	15
56	C[C@@H]1CCCCO[C@@H](CN(C)C(=O)Cc2ccccc2)[C@@H](C)CN([C@H](C)CO)C(=O)c2cc(NC(=O)Nc3ccc(F)cc3)ccc2O1	18
57	Cc1sc2nc(SCC(=O)NCC3CCCO3)n(-c3ccc(F)cc3)c(=O)c2c1C (stereo unspecified)	-6
58	Cc1ccc(S(=O)(=O)Nc2cccc3c2O[C@H](CN(C)C(=O)Nc2c(C)noc2C)[C@@H](C)CN([C@@H](C)CO)C3=O)cc1	1
59	Cc1cc(C)cc(OCC(=O)Nc2cccc(-c3nnc(-c4ccco4)o3)c2)c1	69
60	COc1cccc(NC(=O)CSc2nnc(-c3ccncc3)n2-c2ccc(Br)cc2)c1	14

Next records
no.	Compound	NOMO-1 viab
61	Cc1ccn2c(-c3nnco3)c(C)nc2c1	21
62	Cc1cc(=O)c2c(O)c3c(cc2o1)OC(C(C)(C)OC1OC(CO)C(O)C(O)C1O)C3 (stereo unspecified)	-8
63	COc1ccc(S(=O)(=O)Nc2cccc3c2O[C@H](CN(C)Cc2ccc(C(=O)Nc4ccccc4N)cc2)[C@@H](C)CN([C@H](C)CO)C3=O)cc1	55
64	C[C@H]1CN([C@@H](C)CO)C(=O)Cc2cc(NC(=O)NC3CCCCC3)ccc2O[C@H]1CN(C)CC1CCCCC1	41
65	COc1ccc(NC(=O)N(C)C[C@@H]2Oc3ccc(NC(=O)C4CC4)cc3CC(=O)N([C@@H](C)CO)C[C@@H]2C)cc1	-1
66	CN(CC(=O)O)S(=O)(=O)c1cccc2cccc(Cl)c12	3
67	C[C@H](CO)N1C[C@H](C)[C@H](CN(C)C(=O)Nc2ccc(F)cc2)Oc2ccc(NS(=O)(=O)c3ccc(Cl)cc3)cc2CC1=O	29
68	O=C(NCCN1CCN(C(=O)Nc2ccccc2)CC1)Nc1ccccc1	11
69	C[C@@H]1CN([C@H](C)CO)C(=O)Cc2cc(NC(=O)C3CC3)ccc2O[C@@H]1CN(C)CC1CC1	15
70	Cc1noc(C)c1NC(=O)Nc1ccc2c(c1)CC(=O)N([C@@H](C)CO)C[C@H](C)[C@H](CN(C)C(=O)Nc1ccc(C(F)(F)F)cc1)O2	-11
71	C[C@@H]1CN([C@@H](C)CO)C(=O)c2cccc(NC(=O)Nc3ccccc3)c2O[C@H]1CN(C)Cc1ccc(Cl)c(Cl)c1	102*
72	C[C@H](CO)N1C[C@H](C)[C@H](CN(C)Cc2ccc3c(c2)OCO3)Oc2ccc(NS(=O)(=O)c3ccc(Cl)cc3)cc2C1=O	12
73	O=C1C(=O)N(CC2CCCO2)C(c2cccc(Oc3ccccc3)c2)C1C(=O)c1ccco1 (stereo unspecified)	14
74	COc1ccc(S(=O)(=O)Nc2ccc3c(c2)CC(=O)N([C@H](C)CO)C[C@@H](C)[C@H](CN(C)C(=O)NC(C)C)O3)cc1	-21
75	CN(C)c1nc(SCC(N)=O)nc(N(C)C)n1	-7
76	C[C@@H]1CN([C@@H](C)CO)C(=O)c2cccc(NC(=O)C3CCCCC3)c2O[C@H]1CN(C)C(=O)Nc1ccccc1	-2
77	CC(C)S(=O)(=O)/C(C#N)=C/Nc1ncccn1	1
78	C[C@H]1CN([C@@H](C)CO)C(=O)c2cc(NC(=O)Nc3cccc4ccccc34)ccc2O[C@H]1CN(C)Cc1ccc2c(c1)OCO2	97*
79	C[C@H](CO)N1C[C@H](C)[C@H](CN(C)Cc2ccc(Oc3ccccc3)cc2)Oc2c(NC(=O)c3nc4ccccc4s3)cccc2C1=O	43
80	Cc1nc(-c2ccccc2)sc1C(=O)C1C(=O)C(=O)N(CCN(C)C)C1c1ccc(Cl)cc1 (stereo unspecified)	11
81	CS(=O)(=O)N(CC(=O)Nc1ccccc1Sc1ccccc1)c1ccc(Cl)c(Cl)c1	47
82	COc1ccc(S(=O)(=O)Nc2ccc3c(c2)CC(=O)N([C@H](C)CO)C[C@H](C)[C@H](CN(C)CC2CC2)O3)cc1	-8
83	Cc1c(-c2ccc(Cl)cc2Cl)nc2ccccc2c1C(=O)NCc1ccccn1	12
84	Cc1ccc(OCC(=O)NC(=S)Nc2cc(C(=O)O)ccc2C)cc1	5
85	CN(c1cccc2cccnc12)S(=O)(=O)c1ccccc1	43
86	C[C@@H]1CCCCO[C@@H](CN(C)CC2CC2)[C@@H](C)CN([C@H](C)CO)C(=O)c2cc(NC(=O)Nc3cccc4ccccc34)ccc2O1	27
87	C[C@@H]1CN([C@@H](C)CO)C(=O)c2cccc(NC(=O)CCCCCC(=O)Nc3ccccc3N)c2O[C@H]1CN(C)S(=O)(=O)c1ccc(Cl)cc1	95*
88	COc1ccc(NC(=O)N(C)C[C@H]2Oc3ccc(NS(C)(=O)=O)cc3CC(=O)N([C@@H](C)CO)C[C@H]2C)cc1	12
